NPYLR7 agonist: agonists of mosquito NPYLR7 receptor, primary screen, cell-based, Aedes aegypti, calcium fluorescence, mosquito biting behavior | Aedes aegypti neuropeptide Y-like receptor 7 (NPYLR7) | HEK293T NPYLR7/Galpha15, GCaMP6s calcium fluorescence | activation, % at 10 µM | 0.15% of 270,000 active | AID 1259423, 2018; in the data active = activation above about 40%;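 also: 0% = vehicle and 100% = reference agonist at the receptor; some compounds past the cut are filed as inactive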
NPYLR7 agonist max-min: also measured in NPYLR7 agonist; calls as there; activation, %; measured here: Max-Min RFU normalised activation; some inactives read as strong as hits;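 span of the calcium signal over five minutes; 0% = vehicle and 100% = native peptide agonist; compound fluorescence can raise it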
The depositor's hits bear a star; & = joins results of further samples.

Preview, 15 compounds:
SMILES | NPYLR7 agonist | NPYLR7 agonist max-min
COc1ccc(F)cc1C(=O)Nc1sccc1C#N | 1.6 | -0.2
O=C(NCCc1ccccn1)c1ccc(-c2ccc3c(c2)OCCO3)s1 | 12.2 | 6.3
Cn1c(=O)c2cc(C(=O)NCc3ccco3)n(Cc3ccccc3)c2n(C)c1=O | 1.3 | -0.5
CCCn1c(=NC(=O)C2=COCCO2)sc2cc(C(C)C)ccc21 | 0.3 | -0.7
Cc1ccc(C)c(CC(=O)N2CCC3(CC2)Nc2ccccc2C(=O)N3c2cccnc2)c1 | 0.9 | 29.7
COc1ccc(C(=O)Nc2c3c(nn2C)CCC3)cc1OC | -1.6 | -0.5
Cc1ccc(C)c(C2CC(c3ccccc3Cl)=NN2C(=O)CN2CCOCC2)c1 (stereo unspecified) | -2.2 | 5.5
CCc1ccc(N2CCCn3c2nc2c3c(=O)n(C)c(=O)n2C)cc1 | 1.6 | -2.5
CC(C)c1ccc(Oc2cnn(C)c(=O)c2Nc2cccc(C(=O)O)c2)cc1 | 7.8 | 3.5
CC(C)CCn1c(Sc2nc3ccccc3s2)nc2c1c(=O)[nH]c(=O)n2C | 0.3 | -4.7
COc1ccccc1-c1ccc(N2CCC(NS(C)(=O)=O)CC2)nn1 | -10.3 | -13.8
C=CCSC(C)C(=O)N1CCN(Cc2ccccc2CO)CC1 (stereo unspecified) | 10.6 | 2.6
CCc1nc(Nc2ccc(OC)cc2)c2ccccc2n1 | 16.7 | 26.8
COc1ccc(C(=O)NCCNC(=O)[C@H]2CCCN2C(=O)COc2ccccc2)cc1 | -2.5 | -3.4
COCCN=c1scc(-c2ccc(Br)cc2)n1N=Cc1ccc(O)cc1O | 5.7 | 3.6

The listing, from the first entry:
SMILES | NPYLR7 agonist | NPYLR7 agonist max-min
COc1ccc(F)cc1C(=O)Nc1sccc1C#N | 1.6 | -0.2
O=C(NCCc1ccccn1)c1ccc(-c2ccc3c(c2)OCCO3)s1 | 12.2 | 6.3
Cn1c(=O)c2cc(C(=O)NCc3ccco3)n(Cc3ccccc3)c2n(C)c1=O | 1.3 | -0.5
CCCn1c(=NC(=O)C2=COCCO2)sc2cc(C(C)C)ccc21 | 0.3 | -0.7
Cc1ccc(C)c(CC(=O)N2CCC3(CC2)Nc2ccccc2C(=O)N3c2cccnc2)c1 | 0.9 | 29.7
COc1ccc(C(=O)Nc2c3c(nn2C)CCC3)cc1OC | -1.6 | -0.5
Cc1ccc(C)c(C2CC(c3ccccc3Cl)=NN2C(=O)CN2CCOCC2)c1 (stereo unspecified) | -2.2 | 5.5
CCc1ccc(N2CCCn3c2nc2c3c(=O)n(C)c(=O)n2C)cc1 | 1.6 | -2.5
CC(C)c1ccc(Oc2cnn(C)c(=O)c2Nc2cccc(C(=O)O)c2)cc1 | 7.8 | 3.5
CC(C)CCn1c(Sc2nc3ccccc3s2)nc2c1c(=O)[nH]c(=O)n2C | 0.3 | -4.7
COc1ccccc1-c1ccc(N2CCC(NS(C)(=O)=O)CC2)nn1 | -10.3 | -13.8
C=CCSC(C)C(=O)N1CCN(Cc2ccccc2CO)CC1 (stereo unspecified) | 10.6 | 2.6
CCc1nc(Nc2ccc(OC)cc2)c2ccccc2n1 | 16.7 | 26.8
COc1ccc(C(=O)NCCNC(=O)[C@H]2CCCN2C(=O)COc2ccccc2)cc1 | -2.5 | -3.4
COCCN=c1scc(-c2ccc(Br)cc2)n1N=Cc1ccc(O)cc1O | 5.7 | 3.6
NC1CCCN(C(=O)c2[nH]cnc2-c2ccccc2)CC1 (stereo unspecified) | -5.8 | -4.8
Cc1ccc(C)c(C(=O)CCC(=O)NCC(=O)Nc2cccc(Cl)c2C)c1 | 1.0 | -2.1
Cc1onc(-c2ccccc2Cl)c1C(=O)Nc1ccc(N=Nc2ccccc2)cc1 | -9.5 | -16.9
O=C(CCc1ccc2c(c1)OCO2)N1CCC2(CCCN(Cc3ccc(F)c(F)c3)C2)C1 (stereo unspecified) | 19.7 | 14.2
Cc1ccc(C(C(=O)NCCc2cnccn2)N(C)C)cc1 (stereo unspecified) | 4.9 | 1.0
CC1(C)CC(NC(=S)Nc2ccc(SC(F)F)cc2)CC(C)(C)N1 | 0.1 | -0.5
O=C1N2c3ccccc3Sc3cccc(c32)C1(O)C(F)(F)F (stereo unspecified) | 1.5 | -0.8
COc1cc(C=C(C#N)S(=O)(=O)c2cc(Br)ccc2Br)ccc1O | 169.9* | 200.3*
COc1ccc2[nH]c3c(c2c1)CCN(C(=O)c1ccc(NC(C)=O)cc1)C3c1ccc(COC(C)=O)o1 (stereo unspecified) | 8.2 | -3.8
C=CCN(Cc1cccnc1)C(=O)C1CCOC1 (stereo unspecified) | 0.4 | 0.0
SMILES | NPYLR7 agonist | NPYLR7 agonist max-min
C=CCNCc1csc(COc2cccc(Cl)c2)n1 | 19.0 | 26.4
Cc1cc(C)c(S(=O)(=O)N2CCN(c3nc(C(C)C)nc4sc5c(c34)CCCC5)CC2)c(C)c1 | -12.0 | -7.7
O=C(NC(=S)NC1CCS(=O)(=O)C1)c1ccc(Cl)cc1 (stereo unspecified) | 0.1 | 17.7
Cc1ccc2c(c1)SC(C(=O)NC1CCC3(CC1)OCCO3)C2 (stereo unspecified) | 0.9 | 11.9
Cc1cccc(C)c1N=C1NN=C(c2ccc(Cl)c(Cl)c2)CS1 | 5.0 | 3.8
CCOC(=O)CCCN(CC(=O)N(CCc1ccccc1)Cc1ccc(C)o1)CC1CCCO1 (stereo unspecified) | -0.5 | 7.5
CCN1CCC(C(=O)NC(c2cnccn2)c2ccccc2C)CC1 (stereo unspecified) | -0.5 | -8.1
Cc1ccsc1CN(C)CCCn1cccn1 | 1.8 | 12.3
CN(Cc1ccc(CO)o1)CC1CCN(c2ccccc2)C1 (stereo unspecified) | -0.2 | 0.9
COc1ccc(CN2CCN(C3CSCCSC3)CC2CCO)c(F)c1 (stereo unspecified) | 13.8 | 5.3
Oc1ccc(C23CC4CC(CC(C4)C2)C3)cc1 | 6.1 | 5.4
O=C(O)C(NCC(F)(F)F)c1cc(Br)cs1 (stereo unspecified) | 5.7 | 2.1
CCn1c(SCc2ccc(Cl)cc2)c[n+]2c1CCC2 | -10.7 | -13.3
Cc1ccc(C2CC(=O)c3cnn(-c4nc(C)cc(C)n4)c3C2)cc1 (stereo unspecified) | 14.2 | 2.5
CCOc1cc(C2C(C(=O)Nc3ccccc3)=C(C)Nc3nnnn32)ccc1O (stereo unspecified) | 1.8 | -0.3
CS(=O)(=O)CCCS(=O)(=O)Oc1ccccc1F | -1.9 | -1.6
COc1cccc(-c2ccc(NC(=O)C3CCCN(CCCn4nc(C)cc4C)C3)cc2)c1 (stereo unspecified) | 13.8 | 5.6
COc1ccc(C)cc1S(=O)(=O)N1CCN(CC(OCc2cccc(C)c2)c2ccc(Cl)cc2)CC1 (stereo unspecified) | 28.7 | 17.4
NC(=O)CN1CCCN(C(=O)C=C(C2CC2)C2CC2)CC1 | -4.3 | 23.9
COc1ccc(-c2c(C)oc3c4c(ccc3c2=O)OCN(CCc2cccs2)C4)cc1 | 0.7 | -3.3
COc1ccc(CC2(CCC(=O)NCC3CCOCC3)CCC(=O)N2)c2ccccc12 (stereo unspecified) | 19.8 | 9.0
CCn1nnc2c(=O)n(CC(=O)c3ccc(Cl)cc3)cnc21 | 2.6 | 12.0
CCCNC(=O)CCc1nc2cc(S(=O)(=O)N(CC)CC)ccc2n1C | 7.3 | 6.7
CCCC(=O)NC1CCCN(c2ccccc2S(C)(=O)=O)C1 (stereo unspecified) | -0.6 | 0.3
COc1ccccc1CN(C)C(=O)C1CCN(c2ccc3nnc(C(F)(F)F)n3n2)CC1 | -1.5 | -4.3
SMILES | NPYLR7 agonist | NPYLR7 agonist max-min
CC1=C(C(=O)OC2CC(C(C)C)CCC2C)C(CC(=O)O)C(=O)N1 (stereo unspecified) | -13.2 | -19.7
OCCC#Cc1ccc(CN2CCN(c3nc4ccccc4o3)CC2)cc1 | -5.7 | -9.0
CSc1cc(C)n(-c2ccccc2)c(=S)c1C(C)=O | 7.0 | 8.8
COc1ccc(Cc2cc(C(F)(F)F)c(C#N)c(SCc3cccnc3)n2)cc1OC | -3.2 | -1.3
COc1ccc2nc(SCC#N)[nH]c2c1 | 8.8 | 13.8
Cc1cccc(C2CCCN(C(=O)CCn3ccnc3C)C2)c1 (stereo unspecified) | -6.1 | -7.1
COc1ccc2nc(-c3ccc(Cl)c(NC(=O)NC4CCCCC4)c3)cn2n1 | -1.3 | -2.1
CCOC(=O)c1cc(NC(=O)CSCc2ccc(Cl)cc2)cn1C | -5.7 | -6.5
CC(C)CNC(=O)C(NC(=O)C(C)C)C1CCN(C(=O)c2ccccc2)CC1 (stereo unspecified) | -1.2 | 4.0
O=C1C=CC(=NC2=C(Cl)C(=O)c3ccccc3C2=O)C=C1 | 3.6 | 2.7
CC1CCc2c(sc3nc(C(C)C)nc(N4CCN(S(=O)(=O)c5cc(Cl)ccc5Cl)CC4)c23)C1 (stereo unspecified) | -5.2 | 7.2
O=C(NC1CC1)C1CCCN1C(=O)COc1ccccc1Cc1ccccc1 (stereo unspecified) | -1.8 | -2.7
CC(C)N(CC(=O)N(CCc1c[nH]c2ccccc12)Cc1ccccc1)S(=O)(=O)c1cccc2ccccc12 | 15.9 | 14.9
COc1ccc(CNS(=O)(=O)c2ccc(Cl)c(OC)c2)cc1 | 8.2 | 7.9
COc1cccc(C=C(C#N)c2nc(-c3ccccc3)cs2)c1OC | 9.8 | 3.0
CC(C)CN(CC(=O)Nc1cc(-c2ccccc2)nn1-c1ccccc1Cl)C(=O)C1C[C@H]1c1ccccc1 (stereo partly specified) | 3.9 | 1.6
CCOc1ccc(CNc2nccc(-n3nc(C)cc3C)n2)cc1 | -4.8 | -6.0
COc1cc(-c2nc3cc(C)ccn3c2NC(C)(C)CC(C)(C)C)ccc1OC(=O)c1cccc2ccccc12 | 12.9 | 15.2
Cc1ccc(C)c(C2=NN(C(=O)CN3CCN(c4ccccc4F)CC3)C(c3ccccc3F)C2)c1 (stereo unspecified) | -5.5 | -0.8
CC(C)CC(NC(N)=O)C(=O)O (stereo unspecified) | 0.8 | -4.8
CCOCCCN(CC(=O)N1CCc2sccc2C1c1ccccc1)C(=O)C1CCC1 (stereo unspecified) | 8.9 | 11.1
Cc1cc(C)n(-c2cccc3cccnc23)n1 | -8.5 | -16.5
CCOc1ccc(C(=O)Oc2coc(CSc3nc(C)cs3)cc2=O)cc1 | -14.6 | -5.6
CCc1noc(CN2CCCc3cc(OC(F)F)ccc32)n1 | -0.2 | -2.1
CCOc1ccc(C(=O)NCCc2csc3nc(-c4cccs4)nn23)cc1 | -5.5 | -4.4
SMILES | NPYLR7 agonist | NPYLR7 agonist max-min
CSCCC(=O)N1CCC(C2CCN(Cc3cccnc3)CC2)C1 (stereo unspecified) | 4.3 | 0.8
CN(C)S(=O)(=O)c1ccc(C(=O)NCc2nnc(SCC(=O)N3CCc4ccccc43)n2-c2ccc(F)cc2)cc1 | -6.0 | -4.7
CC1(C)CC2(CCCN3C(=O)CSC32)CCS1 (stereo unspecified) | -1.2 | -5.7
COc1ccc(C(=O)NCc2ccc3c(c2)OCO3)cc1Br | 2.9 | 8.3
COc1ccc(NC(=O)C2CCN(C(=O)[C@@H](Cc3ccccc3)NC(=O)/C=C/c3ccc(OC(F)(F)F)cc3)CC2)cc1 | -4.5 | 12.2
COc1ccc(C(=O)Nc2cc(-c3nc4ncccc4o3)ccc2C)cc1[N+](=O)[O-] | 3.7 | 4.4
Cc1ccccc1-n1c(C)nnc1SCc1nc2ccsc2c(=O)[nH]1 | 14.4 | 4.7
COC(=O)CCC/C=C1\SCC(NC(=O)c2ccccc2)C1NC(C)=O (stereo unspecified) | -0.6 | 7.2
COc1cn2c(cc1=O)C(=O)N(CCNC(=O)c1ccc(C(C)(C)C)cc1)CC2 | 14.3 | 10.9
CCSc1nc(CC(=O)NCc2cc(CC)no2)cs1 | -6.4 | -13.9
O=C(CCN1C(=O)/C(=C/c2ccccc2)SC1=S)Nc1cccnc1 | 0.7 | 7.5
CCOC(=O)c1nn(-c2ccc(F)cc2)c(=O)cc1NCCCOC | 5.1 | 2.7
CC(C)c1cc(N(C)Cc2ccccc2)nc(SCc2ccc(C(=O)NCc3ccccn3)o2)n1 | 1.7 | 4.8
Cc1ccc(-n2ncc3c2CCCC3NC(=O)CCc2c(C)noc2C)cc1C (stereo unspecified) | 1.1 | -1.9
CCSc1nc(CC(=O)N2CCCCC2c2nc(C)no2)cs1 (stereo unspecified) | 8.2 | 7.4
Cc1ccccc1-c1cc(N)n(CCOC(=O)CC(C)C)n1 | 8.0 | 3.4
Cc1cnccc1-n1nc(C(C)C)nc1C(C)n1cncn1 (stereo unspecified) | 18.4 | 10.0
O=C(O)C1CSC(c2cc(Br)c(O)c(Br)c2)N1 (stereo unspecified) | -0.3 | -3.8
CN(C)CCN(Cc1ccccc1)c1nc2ccccc2o1 | -2.7 | -15.1
CC(C)CNC1CCS(=O)(=O)C1 (stereo unspecified) | 7.0 | 8.3
COC(=O)c1ccc(NC(=O)Cn2ccn3nc(-c4ccc(OC)c(OC)c4)cc3c2=O)cc1 | 5.1 | 2.5
Cc1cc(C(=O)N2CCC(C(=O)Nc3ccc(Oc4ccccc4)nc3)CC2)nn1C | -2.3&2.1 | -1.4&1.6
Cc1cc(C)n(-c2nc3nonc3nc2Nc2cccc(C(F)(F)F)c2)n1 | -5.9 | -10.0
O=C(c1ccncc1)N(c1ccc2oc(=O)sc2c1)S(=O)(=O)c1ccccc1 | 1.4 | 11.3
COc1ccc(CC(=O)N2CCC3(CC2)OCc2cc(-c4ccc(OC)c(OC)c4)ccc2O3)cc1 | -5.7 | -14.2
Cc1nn(C)c(=O)c(-c2nnn(CCCOc3ccc(Cl)cc3)n2)c1C | 4.0 | 2.2
Nc1cccc(-c2cccc(OCc3ccccc3)c2)n1 | 2.3 | -5.0
Cc1cc(C)cc(-n2c(SCC(=O)NCCc3ccccc3)nc3c(c2=O)SCC3)c1 | -6.6 | -11.1

Record cards (already shown). Order of screens: NPYLR7 agonist, NPYLR7 agonist max-min
Results for `Cc1ccccc1-n1c(C)nnc1SCc1nc2ccsc2c(=O)[nH]1` = 14.4, 4.7
Results for `Cc1ccc(-n2ncc3c2CCCC3NC(=O)CCc2c(C)noc2C)cc1C` (stereo unspecified) = 1.1, -1.9

This is a subset, so the mix of outcomes need not match the whole.
